Mtb growth = Confirmatory growth inhibition assay against Mycobacterium tuberculosis H37Rv, potency (AID 1949); most inactive calls were filed without a number and no value below 0 was filed; inhibition, % at 10 µg/mL; hits with a dose series show IC50 in µg/mL; 1.6% of 100,000 active;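 active = confirmed in a dose series; inconclusive = about 50% or more but not retested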;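 also: bacteria grown 7 days with compound before Alamar blue readout; 0% = untreated bacteria and 100% = reference antibiotic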
Starred values were filed as active, the others as inactive; i = inactive; u = inconclusive. These rows are one share of the data; count on the stated rates, not on these rows.

SMILES	Mtb growth
COc1cccc(C(=O)Nc2nnc(COc3ccccc3F)s2)c1	i
Oc1cccc(NC(=S)Nc2cccnc2)c1	i
CCC(Oc1ccccc1)C(=O)NCc1ccccc1OC (centres undefined)	2%
C=CCOc1c(Br)cc(CNc2ccc(NC(=O)C(C)C)c(OC)c2)cc1OCC	i
CS(=O)(=O)Nc1ccc(S(=O)(=O)NC2CCCCC2)cc1	i
O=C(CSc1nc2ccccc2s1)Nc1ncc(Cc2ccccc2Cl)s1	i
CC(=O)c1cccc(NC(=O)CSc2nc3ccccc3[nH]2)c1	i
O=C(OCc1ccco1)c1cc(S(=O)(=O)N2CCOCC2)c(Cl)cc1Cl	i
Cc1cc(C)c(C)c(Cn2c(CCCO)nc3ccccc32)c1C	5%
COCCn1c(C)cc(C(=O)CSc2nc3sc(C)c(C)c3c(=O)n2-c2ccccc2)c1C	1%
COC(=O)c1c(NS(=O)(=O)c2cccs2)sc2c1CCCC2	i
O=C(Nc1cc(-c2nc3ccccc3s2)ccc1Cl)c1ncn[nH]1	i
O=C(COc1ccccc1)Nc1ncn[nH]1	i
COc1ccc(OC)c(NC(=O)CN(Cc2ccc(F)cc2)S(=O)(=O)c2ccc(C)cc2)c1	i
CC1=C(C(=O)Nc2ccc(C)cc2)C(c2ccc(F)cc2)NC(=S)N1 (centres undefined)	i
CC(C)OCCCNC(=O)c1ccc(-c2ccccc2)cc1	i
CCc1ccccc1NC(=O)CSc1nnc(CNC(=O)c2cccc(C)c2)n1CC	i
O=C(CSc1ccccc1)Nc1ccc(Sc2ccc([N+](=O)[O-])cc2)cc1	u
CCC(C)NC(=O)c1ccccc1NS(=O)(=O)c1ccc(Br)cc1 (centres undefined)	i
COc1ccc(C)cc1N(CC(=O)Nc1ccccc1C(=O)NC(C)c1ccccc1)S(C)(=O)=O (centres undefined)	i
Cc1cc(Br)ccc1OCCCCn1cnc2ccccc2c1=O	i
COc1ccc(NC(=O)C2CC(=O)NC(=Nc3ccc(F)c(Cl)c3)S2)cc1 (centres undefined)	i
COc1ccccc1NC(=O)c1ccc(-c2ccccc2Cl)o1	i
CCOC(=O)C1CCCN(S(=O)(=O)c2cc(OCC(N)=O)c(C)cc2Cl)C1 (centres undefined)	i
CCN(CC(=O)OC)S(=O)(=O)c1ccc(C)cc1	2%
COc1cc(CNCc2ccc(OC)c(C)c2)cc(OC)c1	i
COCCNC(=O)CN(C)S(=O)(=O)c1ccc(Cl)cc1	0%
CC(=O)Oc1ccc2c(=O)c(Oc3ccc4ccccc4c3)c(C(F)(F)F)oc2c1	i
CCOc1ccc(CN2CCN(S(=O)(=O)c3ccccc3)CC2)cc1	1%
Cc1ccccc1C(=O)NC1CCCCC1C (centres undefined)	i
C=CCc1c(C)nc(SCC(C)C)[nH]c1=O	1%
COC(=O)c1ccc(NC(=O)c2cn(-c3ccccc3)nc2-c2cccc(Cl)c2)cc1	0%
O=C(CNCCO)Nc1sc2c(c1C(=O)Nc1ccc(Br)cc1)CCC2	u
COc1ccccc1/C=C/c1nc2ccccc2[nH]1	16%
O=C(CCCOc1ccccc1)Nc1ccc(S(=O)(=O)N2CCCC2)cc1	i
O=C(Cc1ccccc1)N1CCN(S(=O)(=O)c2ccc(Cl)cc2)CC1	i
CC(=O)Nc1ccc(NC(=O)CCCC(=O)O)cc1	i
CCOC(=O)C1CCCN(S(=O)(=O)c2ccc(C)cc2)C1 (centres undefined)	i
Cc1ccc2nc(-c3ccc(NC(=O)C(C)Oc4ccccc4)cc3)sc2c1 (centres undefined)	i
Cc1ccccc1-c1nnc(SCC(=O)Nc2cccc(C(=O)O)c2)n1C	i
O=C1c2ccccc2C(=O)N1CCc1nc2ccccc2c(=O)n1Cc1ccco1	1%
CC(=O)c1c(N)c(C#N)cn1-c1ccc(C)cc1	i
Cc1ccc(C)c(S(=O)(=O)Nc2ccc(C(=O)O)cc2)c1	i
CCc1ccc(-n2c(C)nnc2SCC(=O)Nc2ccc(Cl)cc2Cl)cc1	i
COc1ccc(C(=O)CSc2nc(C)c(C(C)=O)cc2C(N)=O)cc1	14%
CC1(C)C(C(=O)O)N2C(=O)C(NC(=O)Cc3ccccc3)C2S1=O (centres undefined)	i
Cc1ccccc1CSCCNC(=O)CCSc1ccccc1	i
CC(C)Oc1ccc(N2CC(C(=O)Nc3ccc(N4CCOCC4)cc3)CC2=O)cc1 (centres undefined)	i
CCOC(=O)c1ccc(NC(=O)C23CCC(C)(C(=O)C2)C3(C)C)cc1 (centres undefined)	i
CC(C)CCOc1ccc(NC(=O)C2CC(=O)N(c3ccc(F)cc3)C2)cc1 (centres undefined)	i

An excerpt of these results, with each value named:
molecule: CC(=O)c1c(N)c(C#N)cn1-c1ccc(C)cc1
  Mtb growth: i

molecule: Cc1ccc(C)c(S(=O)(=O)Nc2ccc(C(=O)O)cc2)c1
  Mtb growth: i

molecule: CCc1ccc(-n2c(C)nnc2SCC(=O)Nc2ccc(Cl)cc2Cl)cc1
  Mtb growth: i

molecule: COc1ccc(C(=O)CSc2nc(C)c(C(C)=O)cc2C(N)=O)cc1
  Mtb growth: 14%

The list continues:
SMILES	Mtb growth
Cc1ccc(NC(=O)c2c(Cl)cccc2Cl)c(NC(=O)c2c(Cl)cccc2Cl)c1	i
Cc1ccc(C)c(S(=O)(=O)Nc2ccccc2F)c1	0%
COc1ccc(C(=O)c2c(C)oc3c2cc(OC)c2ccccc23)cc1	26%
Cc1cc(C)c(NS(=O)(=O)c2ccc(Cl)cc2)c(Cl)c1	i
CCc1ccccc1NC(=O)COc1ccc(S(=O)(=O)NC(C)(C)C)cc1	i
COc1ccc(C(=O)NN2C(=O)c3ccccc3C2=O)cc1Cl	i
CN(C)CCNC(=O)CNC(=O)C1CCCCC1	i
S=C(NCCN1CCOCC1)NC1CCCc2ccccc21 (centres undefined)	i
CCCC(=O)Nc1ccc(NC(=O)c2ccco2)cc1	i
Cc1nc2cc(NS(=O)(=O)c3ccccc3F)ccc2s1	3%
O=C(c1ccncc1)c1ccc(N2CCN(C3CC(=O)N(Cc4ccccc4)C3=O)CC2)cc1 (centres undefined)	i
CC(Oc1ccc(Br)cc1)C(=O)Nc1ccc2c(c1)OCCO2 (centres undefined)	i
CC1=C(C(=O)Nc2ccc(C)cc2)C(c2cc(Cl)ccc2OC(C)C)NC(=S)N1 (centres undefined)	i
CCOc1ccc(C2C(C(=O)Nc3cccnc3)=C(C)NC3=C2C(=O)CCC3)cc1 (centres undefined)	i
Cc1ccc(NC(=O)N2CCN(C/C=C/c3ccccc3)CC2)cc1	4%
CC(C)(C)c1cc(Cl)c(O)c(NC(=S)NC(=O)c2cccc3ccccc23)c1	<0.1µg/mL*
Cc1ccc(C(C)C)c(OCCSc2nc3ccccc3n2CC(O)CO)c1 (centres undefined)	i
CCNC(=O)CC1C(=O)N(Cc2ccc(F)cc2)C(=S)N1Cc1ccc(OC)cc1 (centres undefined)	5%
O=C(Nc1nc2ccc(F)cc2s1)c1sc2ccccc2c1Cl	i
C=CCNC(=O)COc1ccc(Br)cc1C	i
CCN1CCN(C(=O)COc2ccc(Cl)c(C)c2)CC1	0%
CCOc1ccc(CN2CCC(N3CCN(Cc4ccccc4)CC3)CC2)cc1	2%
CCOc1ccc(C(=O)Nc2cc(-c3nc4cc(C)ccc4o3)ccc2Cl)cc1Br	1%
O=C(NC(=S)Nc1cccc(NC(=O)c2ccco2)c1)c1ccco1	i
COc1ccc(C(=O)N=Nc2c(O)[nH]c3ccc(C)cc23)cc1	i
CCCN1CCC(NC(=O)Nc2ccccc2C(=O)OC)CC1	i
Cc1cc(OCC(=O)Nc2ccc(Br)cc2F)ccc1Cl	0%
Cc1cc(F)c(F)c(C(=O)NCc2ccccc2)c1Cl	9%
COc1ccc(S(=O)(=O)N2CCc3cc(OC)c(OC)cc3C2)cc1	i
O=C(COc1ccccc1)Nc1ncccn1	i
COc1cc(NC(=O)c2cccnc2)c(OC)cc1Cl	i
O=C(NCCN1CCOCC1)C1CCCCC1	i
CCCC(=O)c1cc2c(cc1NC(=O)c1ccc(OC)cc1)OCCO2	i
COc1cccc(Nc2ncnc3sc(C)cc23)c1	3%
CCOC(=O)c1c(C)oc2ccc(OCC(=O)c3ccc(Cl)cc3)cc12	9%
O=C(Nc1nc2c(s1)CCc1ccccc1-2)c1ccccc1Br	1%
CSc1nnc2n(CCc3ccccc3)c(=O)c3c4c(sc3n12)CCCC4	i
CCNS(=O)(=O)c1cc(Cl)ccc1OC	i
O=C(c1ccco1)c1cn(CC(=O)N2CCc3ccccc32)c2ccccc12	i
C=CCn1c(CCC(=O)O)ccc1-c1ccc(C)cc1	i
N#Cc1cn(CC(=O)N2CCc3ccccc3C2)c2ccccc12	i
Cc1ccc2c(c1)C(=O)C(=O)N2	i
COc1c(C)cc(Br)cc1C(=O)Nc1nc2ccc(F)cc2s1	36%
O=C(CSc1ccccc1C(=O)O)c1ccccc1	i
CCOC(=O)c1c(NC(=O)[C@@H]2C[C@@H]2c2ccccc2)sc(C(C)=O)c1C	2%
Cc1nc(CSc2nnc(-c3ccccc3)o2)cs1	u
COc1ccc(C(C)C)cc1S(=O)(=O)N1CCN(c2cc(Cl)ccc2C)CC1	7%
Cc1ccc(-n2c(SC/C=C/c3ccccc3)nc3ccccc3c2=O)cc1	i
COc1ccc(N2C(=S)N(C)C3CS(=O)(=O)CC32)cc1 (centres undefined)	i
CCc1sc(NC(C)=O)nc1-c1ccccc1	i

Sorted by count of non-hydrogen atoms (smallest number first): part of the list above.
SMILES	Mtb growth
Cc1ccc2c(c1)C(=O)C(=O)N2	i
O=C(CSc1ccccc1C(=O)O)c1ccccc1	i
COc1c(C)cc(Br)cc1C(=O)Nc1nc2ccc(F)cc2s1	36%
N#Cc1cn(CC(=O)N2CCc3ccccc3C2)c2ccccc12	i
Cc1ccc(-n2c(SC/C=C/c3ccccc3)nc3ccccc3c2=O)cc1	i

(further entries)
SMILES	Mtb growth
Cc1c(Cl)cccc1NC(=O)Nc1ccc(C(=O)N2CCCC2)cc1	i
CCOc1ccc(-c2cc(C(=O)Nc3cc([N+](=O)[O-])ccc3OC)c3ccccc3n2)cc1	i
CC(Sc1nnc(N)s1)C(=O)Nc1nc2ccccc2s1 (centres undefined)	i
Cc1cccc(C(=O)NCc2nnc(SCC(=O)NCCc3ccccc3)n2C)c1	i
CC(C)c1ccc(C(=O)NCc2ccco2)cc1	i
CCOc1cc(CO)cc(I)c1OCc1ccc([N+](=O)[O-])cc1	0%
Cc1cccc(N2CCN(C(=O)C3C4CCC(O4)C3C(=O)O)CC2)c1C (centres undefined)	4%
O=C(Nc1nc2c(s1)CCCC2)c1cccnc1	i
CCOC(=O)NC1(C(F)(F)F)C(=O)N(c2ccc(C)cc2)C2=C1C(=O)CC(C)(C)C2 (centres undefined)	i
S=c1[nH]nc(-c2cc(-c3ccccc3)nc3ccccc23)o1	i
CCn1cc(CNC(=O)COc2ccc(Cl)cc2Cl)cn1	i
Cc1ccccc1C(=O)NC(=S)Nc1c(Cl)cc(Cl)cc1C(=O)O	i
O=C(COc1ccccc1Cl)Nc1ccccc1C(=O)O	4%
Cc1cccc(OCCCn2c(C3CC(=O)N(c4ccccc4)C3)nc3ccccc32)c1 (centres undefined)	i
Cc1ccccc1-c1nnnn1C1CCS(=O)(=O)C1 (centres undefined)	0%
O=C(Nc1ccc(Oc2ccccc2)cc1)c1ccc2c(c1)OCO2	i
CCOc1ccc2c(c1)C(c1ccccc1C(F)(F)F)CC(=O)N2 (centres undefined)	i
CCN(CC)S(=O)(=O)c1ccc(NC(=O)Nc2ccc(Cl)cc2)cc1	5%
O=C(N1CCOCC1)N1CCN(c2cccc(Cl)c2Cl)CC1	1%
O=S(=O)(NCCc1ccncc1)c1cc(Br)ccc1F	5%
COc1ccc(CN2CCC(N3CC(C)OC(C)C3)CC2)c(OC)c1OC (centres undefined)	i
C=CCn1c(SCC(=O)N(C2CCCCC2)C2CCCCC2)nnc1-c1ccccc1	i
O=C(CSc1ccccc1)Nc1ccc(-c2nc3ccccc3c(=O)[nH]2)cc1	8%
COC(=O)c1c(NC(=O)C2CCCO2)sc2c1-c1ccc(OC)cc1CC2 (centres undefined)	18%
COC(=O)C1=CN(C(CC(C)C)C(=O)OC)C=C(C(=O)OC)C1c1ccc(Br)cc1 (centres undefined)	i
CC(C)CC(NS(=O)(=O)c1ccc(C(C)(C)C)cc1)C(=O)O (centres undefined)	i
CCCCc1nc(SCC(=O)Nc2nncs2)n[nH]1	0%
Cc1ccnc(NC(=O)c2ccc3c(c2)C(=O)N(CC2CCCO2)C3=O)c1 (centres undefined)	i
O=S(=O)(/N=C(/NS(=O)(=O)c1ccccc1)c1ccccc1)c1ccc2ccccc2c1	i
CSc1ccccc1NC(=O)CN(c1ccc(C)c(Cl)c1)S(C)(=O)=O	i
CCCCc1ccc(NC(=O)CN(c2ccccc2F)S(C)(=O)=O)cc1	i
CC1=C(C(=O)Nc2cccc(C)c2C)C(c2c(Cl)cccc2Cl)NC(=O)N1 (centres undefined)	i
O=C(CC1(O)C(=O)N(CCc2ccccc2)c2ccc(Cl)cc21)c1cccs1 (centres undefined)	i
CCN(Cc1c(C)[nH]c2ccc(C)cc2c1=O)C1CCCCC1	i
Cc1ccc(NC(=O)Cc2nc3ccccc3n2CCC#N)cc1	1%

High-throughput results as filed in PubChem.
